# Compound activity as filed in PubChem BioAssay.
# Sfp inh: blocks B. subtilis Sfp PPTase activity | Q9F4F7 | Biochemical Sfp PPTase activity, qHTS | Potency, µM, for the others: max response, negative = inhibition, usual class: inhibitors | 3.5% of 310,000 active | AID 1490; active = well fitted inhibition curve with a large enough effect; inconclusive = small, poorly fitted or top-dose-only effect, or another doubt; inactive = no such curve, though single readings can be large or run the other way;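 also: the enzyme is Sfp with the accession as filed and its product quenches rhodamine fluorescence; potency is read from the fitted curve at half-maximal effect; 0% = enzyme reaction without inhibitor and -100% = no enzyme wells; top concentration of the series not given in the record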
#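 Buffer: 50 mM Hepes-Na pH 7.6, 10 mM MgCl2, 0.01% Nonidet P-40, 0.01% BSA. Enzyme 15 nM, pre-exposed to compound 15 min; substrates then added and fluorescence change tracked over 30 min.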
# ClpP mod: qHTS Assay for Activators of ClpP; ATP-dependent Clp protease proteolytic subunit (Bacillus subtilis (strain 168)), P80244; purified B. subtilis ClpP, FRET peptide cleavage, 20 min; Potency, µM (series often up to 57.5 µM), for inactives: top-dose activity change, negative = active; 1.9% of 340,000 active; AID 651965, 2013; active = well fitted falling curve with a large enough effect; inconclusive = small, poorly fitted or top-dose-only effect; inactive = no such curve, though single readings can be large or run the other way; also: potency is read from the fitted curve at half-maximal effect; the source files actives as falling curves though it sought activators and does not explain the sign; nearly all actives have a fitted effect of over 65% in size; many hits overshoot -100%
# Target sequence (P80244 whole entry, looked up): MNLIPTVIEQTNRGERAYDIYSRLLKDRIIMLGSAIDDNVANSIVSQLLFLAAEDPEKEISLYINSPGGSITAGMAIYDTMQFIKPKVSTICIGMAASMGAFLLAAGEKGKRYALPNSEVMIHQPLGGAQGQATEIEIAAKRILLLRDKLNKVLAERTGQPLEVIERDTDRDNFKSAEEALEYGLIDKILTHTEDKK
#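 FRET quenching reversal measured ClpP activation: 10 microg/mL B. subtilis ClpP at pH 8 with the FRET-FV decapeptide, read at 430 nm after 320 nm excitation. The 20-min minus 0-min signal was scaled between DMSO/no-enzyme wells and ADEP (5.8 microM final).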
# TRPV1 PAM: potentiators of human vanilloid receptor 1 (TRPV1); potentiation, % at 8.33 µM; 0.02% of 320,000 active; TRPV1-expressing cells, Fluo-8 calcium influx, capsaicin EC20 potentiation; host cell line not named in the record; control for the full effect not named in the record; active means potentiation above 80%; inconclusive means 30% to 80%; inactive means below 30%; also: 0% is about no effect
#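 Cells expressing TRPV1 were dye-loaded with Fluo-8 and read kinetically: 10 s baseline, 3 min after compound (agonist portion), then 2 min after EC20 capsaicin (allosteric enhancer portion). Calcium-bound dye fluorescence at 480/520 nm.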
# gsp antag: antagonists of gsp mutant (McCune-Albright syndrome). gsp-mutant cells, cAMP HTRF, 30 min; control for the full effect not named in the record. 0.4% of 340,000 active. Potency, µM (series often up to 76.9 µM), inactives show top-dose activity change, negative = inhibition, usual class: inhibitors; active = falling curve of any shape with a large fitted effect; inconclusive = falling curve, mostly with a smaller effect; inactive = flat or rising curve; cell line not stated here;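 also: intracellular cAMP measured with PDE inhibitor Ro 20-1724 present during compound exposure; potency is read from the fitted curve at half-maximal effect; % is scaled to controls: 0 for no effect and ±100 for the full control effect; nearly all actives have a fitted effect of over 65% in size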
#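 Measurement of cellular cAMP by homogeneous time-resolved fluorescence following a 30 min compound exposure at 37C. The PDE inhibitor […] was present throughout; the assay buffer was DPBS with 0.05% BSA and 0.005% Tween 20.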
# TRPML1 inh: blocks the human TRPML1 channel; Q9GZU1; AID 624415; activity change, negative = inhibition, % (no concentration beside the values); TRPML1-inducible cells, Ca2+ dye fluorescence, FDSS; stronger effect = lower value; inhibition of EC80 agonist-evoked calcium signal; 0.02% of 390,000 active; in the data active means activity change below about -50%; inconclusive means about -30% to -50%; inactive means above about -30%;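 also: stimulus is agonist 54-4 at its EC80 concentration; % is scaled to controls: 0 for no effect and ±100 for the full control effect; compound concentration not given in the record; the text of the record puts the active cut at -80%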
# Target sequence (Q9GZU1 whole entry, looked up): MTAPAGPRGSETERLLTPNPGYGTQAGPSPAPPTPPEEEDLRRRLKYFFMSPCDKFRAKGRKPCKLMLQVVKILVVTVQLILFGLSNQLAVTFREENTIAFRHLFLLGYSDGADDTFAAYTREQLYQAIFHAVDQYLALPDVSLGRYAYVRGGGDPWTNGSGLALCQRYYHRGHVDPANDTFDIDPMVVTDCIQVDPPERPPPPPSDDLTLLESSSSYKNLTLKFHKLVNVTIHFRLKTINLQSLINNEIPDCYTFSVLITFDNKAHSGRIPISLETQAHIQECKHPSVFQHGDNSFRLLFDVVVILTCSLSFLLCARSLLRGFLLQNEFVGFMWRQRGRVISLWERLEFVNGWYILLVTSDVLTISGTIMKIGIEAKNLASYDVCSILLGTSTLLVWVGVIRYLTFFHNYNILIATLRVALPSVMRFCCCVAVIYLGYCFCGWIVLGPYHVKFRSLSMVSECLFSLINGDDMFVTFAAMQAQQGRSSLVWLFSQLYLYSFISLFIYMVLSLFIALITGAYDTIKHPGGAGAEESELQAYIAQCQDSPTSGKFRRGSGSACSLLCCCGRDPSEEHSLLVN
#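 Calcium fluorescence in TRPML1-DL cells induced overnight with Tet: a 110 s read after compound pin addition, then a 110 s antagonist read after challenge with 54-4 at 4 uM final (EC80).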
# gsp agonist: activates gsp, the McCune-Albright syndrome mutation; gsp mutant cells, cAMP HTRF, 30 min; control for the full effect not named in the record; Potency, µM (titrated, usually from 76.9 µM), without a hit: top-dose activation (cAMP increase), actives largely listed as activators; 0.13% of 340,000 active; active = well fitted activation curve with a large enough effect; inconclusive = small, poorly fitted or top-dose-only effect, or another doubt; inactive = no such curve, though single readings can be large or run the other way; cell line not stated here;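 also: phosphodiesterase inhibitor Ro 20-1724 added with compounds to block cAMP breakdown; potency is read from the fitted curve at half-maximal effect; nearly all actives have a fitted effect of over 60% in size; about a fifth of the inactives were tested at one dose only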
#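 Cells stably selected in G418 were plated at 2000/well, grown 16-24 hr, then given compounds in DMSO with the PDE inhibitor […] (300 uM solution added) for 30 min at 37C; cAMP was read by HTRF.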
# Menin MLL FP FL: displaces fluorescein MLL peptide from human menin; Fluorescence polarization, fluorescein-MLL peptide displacement from menin; FP activity change, % at 61.4 µM; 290,000 tested, under 10 active; inconclusive = falling polarisation curve, or a change in total fluorescence; inactive = total fluorescence flat and polarisation flat or rising; no compound was filed as active; the % refers to the polarisation; negative = inhibition;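 also: % of control where 0% means no effect; inhibitors lower the polarisation; unlabelled MLL peptide was the positive control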
# * marks the source's active call; other numbers are inactive results; ? = inconclusive; · = not tested or not shown; & = joins results of further samples; [ ] = another dose, or the depositor's remark.
SMILES,Sfp inh,ClpP mod,TRPV1 PAM,gsp antag,TRPML1 inh,gsp agonist,Menin MLL FP FL
Cc1ccc(Cn2c(=N)n(CC(O)COc3ccccc3)c3ccccc32)cc1 (stereo not given),22µM*,0.8%,1,11%,28,-17%,0.9
Cn1c(-c2ccccc2)c(/C=N/NC(=O)c2cccnc2)c2ccccc21,-2%,·,-4,-9%,14,-56%[inhibitor],0.0
O=C(Nc1ccc2c(c1)OCO2)c1ccc(Cl)s1,-9%,-0.5%,24,-12%,-1,-2%,-1.2
N#Cc1cccc(NC(=O)CN2C(=O)NC(Cc3ccccc3)C2=O)c1 (stereo not given),14%,1.3%,6,10%,-3,2%,1.1
COc1ccc(S(=O)(=O)ON=C2CC(C)(C)N(C(C)=O)C(C)(C)C2)cc1,-7%,-1.4%,-8,4%,27,24%,-6.8
CCOC(=O)[C@@H]1[C@H]2COc3ccc(Br)cc3[C@H]2N2C(=O)N(c3ccc(C(F)(F)F)cc3)C(=O)[C@]12C,·,-0.9%,·,2%,28,-6%,·
Cc1cc(C(=O)Nc2ccc(C(=O)O)cc2)c(C)o1,20%,·,10,4%,-25,-9%,1.1
CC1(C)CC(=O)C(C=NCCN2CCN(C(=S)Nc3ccc(F)cc3)CC2)=C(O)C1,-2%,0.6%,-2,0%,13,-43%,2.9
O=P(O)(O)c1ccccc1OCc1ccccc1,27%,-0.8%,-2,-3%[15.4 µM],-3,17%,1.9
CCN(CC)C(=O)c1oc2ccc(S(=O)(=O)N3CC(C)CC(C)C3)cc2c1C (stereo not given),-4%,·,-11,?,17,9%[15.4 µM],18
COc1cccc(/C=C/C(=O)OCC(=O)c2ccc3c(c2)NC(=O)CO3)c1OC,-6%,·,-23,1%,3,-2%,-0.5
O=C(NC(Cc1ccccc1)C(=O)O)/C(=C\c1cccc([N+](=O)[O-])c1)NC(=O)c1ccco1 (stereo not given),16%,-1.8%,-4,4%,0,-3%[15.4 µM],-1.8
CC(C)CCOC(=O)C1C2C=CC3(CN(Cc4cccs4)C(=O)C13)O2 (stereo not given),10%,1.2%,13,8%,-7,-37%[inhibitor],0.3
O=C(CN1C(=O)c2ccccc2C1=O)NCc1ccc(C(=O)O)cc1,10%,·,11,0%,4,6%[15.4 µM],-11
Oc1ccccc1-c1nc(NCc2ccccc2)c2ccccc2n1,-12%,·,?,-1%,-2,?,?
O=C(Cc1ccon1)c1ccc(O)cc1O,5%,0.7%,2,-9%,6,9%,-11
Cc1sc(NC(=O)c2ccccc2)c(C(=O)NCCN(C)C)c1C,14%,-4.3%,?,15%,-1,27%,-1.8
CC(Cc1cccs1)NC(=O)Nc1ccc(Cl)cc1 (stereo not given),8%,-3.1%,-9,-10%,-4,0%[15.4 µM],2.9
O=c1c([N+](=O)[O-])c(N2CCCC2)c2ccccc2n1-c1ccccc1,4%,·,0,-2%,24,-24%,?
Cc1ccc(-c2nnc(CSc3nnc4c5c(C)c(C)sc5nc(C(C)C)n34)o2)cc1,9%,·,-7,·,·,·,1.4
CCN1CCCC1CNC(=O)c1c(O)c2c([nH]c1=O)CCCC2 (stereo not given),0%,?,4,16%,0,-13%,-1.2
CCCSc1nnc2n(Cc3ccccc3)c(=O)c3c4c(sc3n12)CCC4,4%,·,-10,·,·,·,1.6
Cc1ccc(NC(=O)CSc2nnc(CNC(=O)c3ccco3)n2C)cc1,·,1.6%,-5,0%,-4,33%,·
C/C=C(\C)C(=O)NCCN1C2=NC[C@H](C(C)C)N2C[C@H]1Cc1ccc(O)cc1,0%,3.4%,-11,8%,13,-51%[inhibitor],-3.3
Cc1ccc2oc(=O)cc(CN3CCN(Cc4ccccc4)CC3)c2c1,2%,-1.3%,-1,-6%,16,?,-0.9
Cc1ccccc1C(=O)Nc1nnc(-c2ccc(F)cc2)o1,21%,-0.7%,?,-10%,7,-3%,3.0
COc1cc(NC(=O)COC(=O)c2ccc(C)c(S(=O)(=O)N3CCCCC3)c2)c(C)cc1[N+](=O)[O-],14%,0.2%,-8,-8%,-17,-2%,1.7
O=C(CCNC(=O)c1ccc(Br)cc1)NCCCSc1ccccc1,·,-3.7%,-4,13%,8,-6%[15.4 µM],·
COc1ccc(-c2cc(C(F)F)n3ncc(C(=O)N4CCCCC4)c3n2)cc1,-5%,?,-20,1%,-15,15%,1.8
O=C(CN1CCCC1)N1CCCc2c1c(=O)oc1ccc(OCc3ccccc3)cc21,?,32µM*,15,8%,-5,?,0.2
O=C(NCCN1CCCC1)C1CCN(S(=O)(=O)N2CCC3(CC2)OCCO3)CC1,15%,0.2%,27,0%,-9,-1%,-1.0
Cc1cccc(C(=O)O/N=C(\N)c2ccc(Br)cc2)c1,-2%,-1.0%,10,2%,14,-15%,-1.6
CC(C)NC(=O)CSc1nc2ccccc2n1-c1ccccc1,19%,0.8%,-4,0%,-6,-13%,-0.9
COc1nc(N/N=C/c2cc3c(cc2Br)OCO3)nc(N2CCOCC2)n1,-1%,-25%,1,-3%,1,?,-2.8
COC(=O)Cc1ccc(NC(=S)NCCCN2CCOCC2)cc1,-1%,·,0,12%,5,-7%[15.4 µM],1.7
CC(=O)Nc1cc2cc(NS(=O)(=O)c3ccc(Cl)cc3)ccc2oc1=O,5%,·,1,-3%,6,3%,5.9
CCn1c(=O)n(CC)c2cc(S(=O)(=O)N3CCc4ccccc43)ccc21,15%,0.1%,-16,-24%,5,-39%[inhibitor],2.4
O=C(CSc1nnc(-c2ccco2)n1Cc1ccccc1)OC1CCCCC1,-8%,?,-7,2%,48,10%,1.4
Cc1nnc(NC(=O)CCC(=O)NCc2cccs2)s1,6%,-2.7%,-1,8%,27,-4%,0.4
COc1ccc(CCCc2nnc(SCc3nc4ccccc4c(=O)[nH]3)n2C)cc1C,15%,·,-24,-11%,-20,10%,-4.9
COc1ccccc1/C=C/c1nc2ccccc2c(=O)o1,·,54%,·,?,7,-21%,·
COc1ccc(C2=NN(C(=O)c3ccccc3)C(c3ccc(OC)c(OC)c3)C2)cc1OC (stereo not given),6%,-6.2%,12,3%,-17,22%,0.8
CCCCCCCCC1=NCCc2c1[nH]c1ccccc21,56µM*,·,19,8%,-7,24%,0.7
CCCCCCCCN1C(=O)N(C)C(N(O)C(=O)NC)C1(C)C (stereo not given),-4%,1.2%,-11,6%,21,21%,-0.8
Cc1ccc(C(=O)COC(=O)CNC(=O)COc2ccccc2C)cc1C,-13%,-1.8%&-2.5%,9,-6%,21,8%,-0.6
Cc1c(C(=O)NC2CCCc3ccccc32)oc2ccc(S(=O)(=O)N3CCCCC3)cc12 (stereo not given),13%,1.7%,1,-5%,-21,-23%,2.7
CC(C)(C)NC(=O)c1ccccc1NC(=O)c1ccc2c(c1)OCO2,5%,·,-1,-2%,12,-3%,-3.0
O=C(Cn1c(=O)oc2ccccc21)NCC1COc2ccccc2O1 (stereo not given),4%,-1.0%,1,-2%,-21,17%,1.6
COc1cc(=O)n2c(n1)SCCC2,8%,-0.1%,-23,1%,4,26%,17
Cc1ccccc1C1CC(=O)c2ccccc2C1C (stereo not given),·,·,·,-5%,-10,9%,·
C=CCSc1nc2c(cnn2-c2ccccc2)c(=O)n1N,7%,·,-20,-7%,21,12%[15.4 µM],-3.5
CSc1nc(-c2ccccc2)nc(N2CCN(C)CC2)c1C(C)=O,10%,1.7%,-14,0%,1,-5%,1.3
COC(=O)Cn1c2ccc(C)cc2c2nc(C)sc21,?,0.6%,-7,-2%,3,-9%,3.0
CCOC(=O)C1CCCN(S(=O)(=O)c2ccc3c(c2)NC(=O)CO3)C1 (stereo not given),11%,0.3%,3,5%,11,?,·
CC(=O)C1=C(C)Nc2ncnn2C1c1ccc(O)cc1 (stereo not given),-1%,-1.0%,?,7%,·,9%,0.7
CC(=O)Oc1c(C)c(=O)n(C)c2ccccc12,17%,-23%,2,3%,8,5%,4.0
NS(=O)(=O)c1cccc(NC(=O)CCN2C(=O)C3CCCCC3C2=O)c1 (stereo not given),·,4.9%,12,13%,-9,-4%,·
CCN(CC)C(=O)Cn1cc(S(=O)(=O)CC(=O)NCCc2ccc(OC)c(OC)c2)c2ccccc21,15%,·,?,6%,-9,23%,-1.0
CCCN1C(=O)/C(=C\C=C2\N(CC)c3ccccc3C2(C)C)SC1=S,-24%,2.4%,7,-4%,-2,-40%[inhibitor],?
CCOc1ccc(NS(=O)(=O)c2ccc(NS(C)(=O)=O)cc2)cc1,9%,1.5%,28,10%,39,-16%,0.8

# One compound at a time, as listed above. Screens in order: Sfp inh | ClpP mod | TRPV1 PAM | gsp antag | TRPML1 inh | gsp agonist | Menin MLL FP FL
# Cc1ccc(C(=O)COC(=O)CNC(=O)COc2ccccc2C)cc1C as listed: -13% | -1.8%&-2.5% | 9 | -6% | 21 | 8% | -0.6
# CSc1nc(-c2ccccc2)nc(N2CCN(C)CC2)c1C(C)=O as listed: 10% | 1.7% | -14 | 0% | 1 | -5% | 1.3

# Carrying on.
SMILES,Sfp inh,ClpP mod,TRPV1 PAM,gsp antag,TRPML1 inh,gsp agonist,Menin MLL FP FL
Cc1cc(C)nc(SCCCNCc2c(F)cccc2Cl)n1,-18%,-0.7%,7,2%,-2,22%,-0.5
O=C(O)CN(CCO)CCN(CC(=O)O)CC(=O)O,14%,·,3,·,·,·,-1.6
CC(C)=C1SC(N2CCN(c3cccc(C(F)(F)F)c3)CC2)=NC1=O,-12%,0.8%,12,-20%,79,-1%,5.2
COc1cc(C(=O)NNC(=O)c2ccc(NC(C)=O)cc2)cc(OC)c1OC,19%,·,?,1%,-12,-6%[15.4 µM],-1.5
Cc1cccc(-c2nnc(SCC#N)n2-c2ccccc2)c1,17%,2.0%,10,-5%,-1,-8%,-2.5
O=C(Nc1nnc(C2CCCCC2)s1)c1cccs1,12%,-7.3%,-16,5%,-18,-2%,0.2
COc1ccc(CCC(=O)N(C)CC(=O)Nc2ccc(N3CCOCC3)cc2)cc1,27%,·,0,13%,-11,12%[15.4 µM],-2.7
